# NPYLR7 agonist: activates Aedes aegypti NPYLR7 receptor; HEK293T NPYLR7/Galpha15, GCaMP6s calcium fluorescence; activation, % at 10 µM; actives 0.15% (n = 270,000); in the data active means activation above about 40%;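 further: 0% = vehicle and 100% = reference agonist at the receptor; some compounds past the cut are filed as inactive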
# NPYLR7 agonist max-min: second read-out of NPYLR7 agonist, no call of its own (marks repeat the call); activation, %; measured here: Max-Min RFU normalised activation; some inactives read as strong as hits;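 span of the calcium signal over five minutes; 0% = vehicle and 100% = native peptide agonist; compound fluorescence can raise it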
# Numbers without * were called inactive; & = joins results of further samples.
SMILES,NPYLR7 agonist,NPYLR7 agonist max-min
CCCCN(C)C(=O)c1sc(=O)n(CC(=O)c2ccc(Cl)cc2)c1C,-9.8,-2.0
c1cc2c(cc1OCC1CCN(Cc3cc4n(n3)CCNC4)CC1)CCC2,4.6,3.5
COc1cccc2c1OCC(CN(C)Cc1cnn(C)c1C)=C2,0.7,12.8
Cc1nc(SCc2cc(=O)n3cc(Br)ccc3n2)n(C2CCCCC2)c1C,-1.5,-4.4
N#CC(c1ccccn1)c1ccnc(N2CCC(O)(c3ccc(Cl)cc3)CC2)n1 (stereo not drawn),2.8,-0.3
CCN(CC)C(=O)c1ccc(C2CCCN2C(=O)CCc2ccco2)s1 (stereo not drawn),18.8,0.6
CC1CCN(C(=O)C(C)NC(=O)c2ccccc2Cl)CC1 (stereo not drawn),-0.4,0.9
CN1CC(C(=O)OCc2cc(Br)ccc2OC(F)F)CC1=O (stereo not drawn),5.3,2.4
CCCCn1c(=O)c2c(nc3n(CC)c(C)c(C)n23)n(C)c1=O,-1.8,6.3
COc1ccc(N(C)S(=O)(=O)c2ccc(OC)c(N3CCN(S(=O)(=O)c4ccccc4Cl)CC3)c2)cc1,16.6,17.4
COc1cccc(-c2cnnc(NCCc3ccccc3F)n2)c1,-1.2,-3.5
Cc1ccc(S(=O)(=O)N2CCN(Cc3cc(=O)c(OCc4ccc(C(C)(C)C)cc4)co3)CC2)c2ccccc12,27.5,15.5
COc1ccc(-c2cc(-c3ccc(OC)cc3)c(C#N)c(SCC(=O)c3ccc(-c4ccccc4)cc3)n2)cc1,-2.3,-5.8
CCn1c(SCC(=O)N2CCC(C)CC2)nc2c([nH]c3ccccc32)c1=O,-4.0,-2.9
NNc1nc(-c2ccccc2)cc(-c2ccccc2O)n1,20.6,10.5
O=C(c1ccc(Cl)cc1Cl)N1CCCC(OCc2ccc(Br)cc2)C1 (stereo not drawn),-3.3,-2.8
CCN(Cc1nccn1Cc1ccccc1C(F)(F)F)C(=O)c1cccc(F)c1,5.0,14.4
CCCn1cc(C(=O)N2CCN(c3ccccc3OC)CC2)c2nn(-c3ccccc3)c(=O)c-2c1,9.7,6.9
COCc1c(C(=O)N(C)CC(=O)Nc2cccc(C)c2C)oc2ccccc12,5.1,1.8
Cc1ccn2c(=O)nc(SCC(=O)NCCc3ccccc3)nc2c1,2.3,0.8
COc1ccc(OC)c2sc(N(CCCN(C)C)C(=O)c3cc(C)no3)nc12,0.7,6.0
O=C(c1ccco1)N1CC[C@@]2(C1)[C@H](O)CN(c1ccccc1)S2(=O)=O,7.2,22.8
CCCCNC(=O)NC(C)c1cnc(-c2ccncc2)nc1C (stereo not drawn),18.8,5.8
CCc1nc2c(OCC3COc4ccccc4O3)cccn2c1N(C)C(=O)c1cccs1 (stereo not drawn),5.9,-1.6
COc1ccc(NC(=O)c2ccc(NC(C)C)nc2)cn1,6.2,5.5

# The list goes on (two carried over from the part before).
SMILES,NPYLR7 agonist,NPYLR7 agonist max-min
CCc1nc2c(OCC3COc4ccccc4O3)cccn2c1N(C)C(=O)c1cccs1 (stereo not drawn),5.9,-1.6
COc1ccc(NC(=O)c2ccc(NC(C)C)nc2)cn1,6.2,5.5
COC(=O)c1ccc(NCc2cc(=O)n3cc(Cl)ccc3n2)c(C)c1,-1.5,-0.8
S=c1sc2ccccc2n1CN1CCN(Cc2ccncc2)CC1,7.7,12.4
c1ccc(-c2cnnc(N3CCN(C45CC6CC(CC(C6)C4)C5)CC3)n2)cc1,0.2&-1.5,-10.5&-0.5
CCOC(=O)c1ccc(OC2CC3CCC(C2)N3C(=O)c2ccc(CSCc3cccs3)cc2)cc1 (stereo not drawn),22.1,14.4
COc1ccccc1C(=O)Oc1ccccc1-c1nc2ccc(Br)cn2c1NC1CCCCC1,-0.3,1.9
COc1ccccc1CCNC(=O)c1cncn1-c1cccc(-c2cccnc2)c1,6.3,-3.6
Cc1cc(CN(Cc2cc(C)on2)C2CCc3ncnn3C2)no1 (stereo not drawn),2.8,1.9
Cn1c(=O)c2c(nc(CN3CCOCC3)n2CCCO)n(C)c1=O,0.6,23.8
CC1C(=O)N(c2ccc(F)cc2)CCN1C(=O)c1ccc(Br)cc1 (stereo not drawn),-1.2,-0.1
COCc1nc2ccc(C)cc2c2c1C(=O)N(CCCn1cccn1)C2=O,-10.2,-13.9
Cc1ccsc1[C@@H]1CCN(Cc2cccc3nsnc23)C[C@H]1O,2.5,1.5
O=C(NCc1n[nH]c(=S)n1-c1ccccc1)c1ccccc1C(F)(F)F,-0.4,-0.6
Cc1ccc(Nc2nc(NCCN(C)C)nc3nccnc23)c(C)c1,9.2,7.1
CC(Nc1ccccn1)C(=O)NC(C)(C)C (stereo not drawn),17.7,12.2
Cc1cccnc1C1=NOC(C)C(=O)N1C/C=C/c1ccccc1 (stereo not drawn),6.9,3.0
Nc1ccc(-n2cccc2C(=O)O)cc1,4.4,10.9
Cc1ccc(-n2cccn2)c(CN2CCCC(C(=O)c3sccc3C)C2)c1 (stereo not drawn),1.6,-0.7
O=C1Nc2ccc(Br)cc2C12NN=C(c1ccccc1)S2 (stereo not drawn),8.2,1.9
C#CCN(Cc1cnc(S(C)(=O)=O)n1CC(C)C)C1CCCCC1,11.5,8.2
CCOC(=O)c1nn(-c2ccc(C(C)C)cc2)c(=O)c2c(N)scc12,-1.9,-3.8
CSc1cccc(CN2CCCC(Nc3ccccc3)C2)c1 (stereo not drawn),5.8&-3.5,4.3&-5.7
COc1cc(OC)cc(C(=O)N2CCCN(c3nc4ccccc4nc3-c3ccccc3)CC2)c1,0.4,12.8
CN(CC1CCCCC1)C(=O)c1cc2ccsc2[nH]1,12.3,11.4
CCN1CCN(c2c(CN(CCC(C)C)C(=O)c3cccc(Cl)c3)c(C)nn2-c2ccccc2)CC1,-0.1,10.6
CCOC(=O)N1CCN(C(c2ccc(Br)cc2)C2Sc3nc(C)nn3C2=O)CC1 (stereo not drawn),-3.3,-3.4

# Quoted from the listing:
# In NPYLR7 agonist max-min, `Cc1cc(CN(Cc2cc(C)on2)C2CCc3ncnn3C2)no1` (stereo not drawn) is entered as 1.9
# In NPYLR7 agonist max-min, `S=c1sc2ccccc2n1CN1CCN(Cc2ccncc2)CC1` is entered as 12.4
# In NPYLR7 agonist, `CCN1CCN(c2c(CN(CCC(C)C)C(=O)c3cccc(Cl)c3)c(C)nn2-c2ccccc2)CC1` is entered as -0.1
# In NPYLR7 agonist max-min, `Cn1c(=O)c2c(nc(CN3CCOCC3)n2CCCO)n(C)c1=O` is entered as 23.8
# In NPYLR7 agonist, `Cc1ccsc1[C@@H]1CCN(Cc2cccc3nsnc23)C[C@H]1O` is entered as 2.5
# In NPYLR7 agonist max-min, `COCc1nc2ccc(C)cc2c2c1C(=O)N(CCCn1cccn1)C2=O` is entered as -13.9
# In NPYLR7 agonist max-min, `CC1C(=O)N(c2ccc(F)cc2)CCN1C(=O)c1ccc(Br)cc1` (stereo not drawn) is entered as -0.1

# Complete entries, looked up by structure.
# Entry for `O=C1Nc2ccc(Br)cc2C12NN=C(c1ccccc1)S2` (stereo not drawn) = NPYLR7 agonist = 8.2; NPYLR7 agonist max-min = 1.9
# Entry for `Cc1ccc(Nc2nc(NCCN(C)C)nc3nccnc23)c(C)c1` = NPYLR7 agonist = 9.2; NPYLR7 agonist max-min = 7.1

# Additional entries follow:
SMILES,NPYLR7 agonist,NPYLR7 agonist max-min
COc1ccc(C2=CCCC2)cc1,-8.3,-13.1
CCOC(=O)CN(Cc1nc(C)c(C)o1)C1CCCCC1,8.4,6.2
COC(=O)c1cc(S(=O)(=O)NCc2cscn2)c(F)cc1F,6.6,3.0
CCc1ccc2nc(N(Cc3cccnc3)C(=O)c3ccc([N+](=O)[O-])s3)sc2c1,-5.4,1.0
COc1ccc2nc(SCc3csc(Cc4ccc(Cl)c(Cl)c4)n3)[nH]c2c1,3.6,1.5
CCc1nn2c(=O)cc(CSc3nnc(-c4cccs4)n3C3CC3)nc2s1,3.3,5.0
Cc1ccc2nc(-c3ccc(C(C)(C)C)cc3)c(NC3CCCCC3)n2c1,-2.7,5.4
CC1(C(=O)O)CCCN1C(=O)c1ccccc1OC(F)(F)F (stereo not drawn),2.5,-1.3
COc1cccc(-c2nnc(SCc3ccc(C(=O)NCc4ccncc4)cc3)n2-c2cccc(Cl)c2)c1,-2.4,0.2
COc1ccc(CCNC(=O)c2c(C)c(C)c(C)n2Cc2ccc(C)cc2)cc1OC,-1.8,7.7
O=C(NCCCn1nc(-c2cccs2)ccc1=O)c1ccc(C(F)(F)F)cc1,-0.5,-3.2
CN(C)c1ccc(NC(=O)c2cccc(F)c2)cc1CN(C(=O)NC(C)(C)C)C1CCCCC1,14.0,13.4
COc1cccc(N=C2NN=C(c3ccc[nH]3)CS2)c1,-12.9,-17.1
CC(C)N1CCCC(C)(C(=O)Nc2nccc3ccccc23)C1 (stereo not drawn),0.7,0.3
Cc1cc(C(C(=O)O)N2CCN(CC(=O)NC(C)C)CC2)ccc1F (stereo not drawn),3.7,3.0
CCCCC(CC)C(=O)N(Cc1ccc(OC)c(OS(=O)(=O)CC)c1)CC(C)C (stereo not drawn),-7.2,6.1
COc1cccc(-c2cn[nH]c2C2CCN(C(=O)C3CC3(C)C)CC2)c1 (stereo not drawn),9.1,5.4
Cn1nnc2c(NCCCc3ccccc3)ncnc21,8.7,3.2
Cc1ccccc1-n1nc(C(C)(C)C)cc1NC(=O)CN(Cc1ccccc1)C(=O)NCc1ccccc1,18.5,11.3
COc1ccc(NC(=O)c2ccc(CSc3nnc(-c4ccc([N+](=O)[O-])cc4)n3-c3ccccc3OC)cc2)cc1,-3.5,1.5
Cc1cc(C)c(C(N)=O)c(NCCc2ccc(F)cc2)n1,-1.2,-2.5
O=C1CC(c2ncc[nH]2)c2cc3c(cc2N1)Nc1ccccc1CC3 (stereo not drawn),-3.0,-6.2
COCCN(Cc1ccc(C(O)(c2ccccc2)c2ccccc2)o1)Cc1cccs1,-2.5,20.9
CC(=O)Nc1nc(C23CC4CC(CC(c5ccc(C)cc5)(C4)C2)C3)cs1,-2.5,-10.3
COc1ccc(NC2(C(=O)N3CCCn4cncc4C3)CCCC2)cc1,14.9,9.1

# Given with bars between the fields: entries from further up
Molecule | NPYLR7 agonist | NPYLR7 agonist max-min
CCc1ccc2nc(N(Cc3cccnc3)C(=O)c3ccc([N+](=O)[O-])s3)sc2c1 | -5.4 | 1.0
COc1ccc2nc(SCc3csc(Cc4ccc(Cl)c(Cl)c4)n3)[nH]c2c1 | 3.6 | 1.5
CCc1nn2c(=O)cc(CSc3nnc(-c4cccs4)n3C3CC3)nc2s1 | 3.3 | 5.0

# (cont.)
SMILES,NPYLR7 agonist,NPYLR7 agonist max-min
Cc1nc(C(=O)NC(C)c2cn3ncsc3n2)cs1 (stereo not drawn),-1.8,0.5
CC1CCCCN1C1CN(Cc2cc(F)ccc2O)C1 (stereo not drawn),19.7,13.6
Cc1ccccc1C(=O)N(Cc1ccsc1)CC(F)(F)F,5.7,4.8
CN(C)c1ccc(C(=O)NCCCCCCC(=O)NO)cc1,-5.6,-11.2
O=[N+]([O-])c1cc([N+](=O)[O-])c2ccccc2c1N1CCOCC1,10.2,0.8
COc1ccc(-n2nnc3c(=O)[nH]cnc32)cc1,-10.9,-12.0
C=CCOc1ccc(C=C2COc3ccccc3C2=O)cc1OC,2.8,0.2
CCCN1CCCN(c2nc3ccccc3c(=O)[nH]2)CC1,6.7,5.2
Cc1cc(C)n2c(NCc3ccccc3)c(CC(C)C)nc2c1,5.4,8.0
O=C(N1CCCC(Nc2ccccc2)C1)C1(N2CCCC2)CCCC1 (stereo not drawn),-4.1,-5.4
COc1ccc(CC(=O)NCCSc2ncc(-c3ccc(OC)cc3)[nH]2)cc1,4.9,4.9
Cc1[nH]n(-c2ccccc2)c(=O)c1C1=C(N2CCCC2)C(=O)N(Cc2ccccc2)C1=O,7.6,10.6
COCc1cc(N2CC[C@@H](N)[C@@H](OC)C2)ncn1,-0.7,-2.0
CC(C)(C)OC(=O)N1CCc2ccc(NC(=O)C3CCCO3)cc2C1 (stereo not drawn),-2.6,-2.7
Cc1ccc(C)c2[nH]c(=O)c(CCNC(=O)C(C)(C)Oc3ccc(Cl)cc3)cc12,19.8,16.7
CC(=O)Nc1ccc(SCC(=O)NCCc2ccccc2)nn1,-3.1,-4.4
COc1ccccc1CN(C(=O)Cc1ccc(SC)cc1)C1CC1,-8.1,-8.7
Cc1cc(-c2noc(CCC(=O)N3CCn4cccc4C3C)n2)ccc1F (stereo not drawn),-0.8,-1.6
Cn1cc(C(=O)N2CCN(C(=O)Cc3ccccc3)CC2)c2nn(-c3ccccc3)c(=O)c-2c1,0.5,0.0
Fc1cccc2c1CCCN2CCn1cncn1,4.1,3.6
CCC(C)N1CNc2c(c(=O)[nH]c(=O)n2-c2ccc(C)cc2)C1 (stereo not drawn),1.7,6.6
Cc1cc(=O)[nH]c(-n2nc(C)cc2NC(=O)c2cccc([N+](=O)[O-])c2C)n1,10.7,5.8

# A portion of the library, so the mix of outcomes need not match the whole.
